Source: PubChem (ICCB-Longwood Screening Facility, Harvard Medical School)
Bm FixLJ act = increases Burkholderia fixLJ two-component signaling; 29,000 tested, 0.3% active; B. multivorans fixK-promoter GFP reporter, 18 h; active compounds read high; z-score (concentration not given with the values);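 active = replicate mean overnight rise in green fluorescent reporter signal, 3 or more SD over negative controls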;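 note: score is relative to vehicle wells of the plate; 300 nL library stock went into each well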
* hit, by the source's call; & = joins results of further samples. The list is partial; the hit share may differ from the screen's.

SMILES | Bm FixLJ act
COc1ccccc1-n1cc(C(=O)NCC2CN(S(C)(=O)=O)CCO2)cn1 (configuration not stated) | 0.05
CCn1ccc(C(=O)N2CC[C@]3(OC)CCC(OC)CC23)n1 (some centres not stated) | 0.25
O=C(COc1ccc(Cl)cc1)Nc1sc2c(c1C(=O)Nc1cccc(Cl)c1)CCCC2 | 0.09
O=C(CSc1nc2ccsc2c(=O)n1Cc1ccccc1Cl)NCc1ccc(F)cc1 | -2
Nc1c(C(=O)Nc2cccc(F)c2)c2ccccn2c1C(=O)c1ccccc1 | -2.32
COc1ccc(CCNC(=O)CN2CCC(Oc3ccncc3)CC2)cc1 | -0.72
CCOC(=O)c1cc(-c2ccc(C)cc2)n(CCC(=O)Nc2cc(Cl)ccc2C)c1C | -0.78
COC(=O)c1cc2sccc2n1Cc1ccc(F)cc1Cl | 0.89
CCCCOC(=O)c1ccc(NC2=NS(=O)(=O)c3ccccc32)cc1 | -0.26
COc1cccc(NC(=O)CSc2cc(=O)n(C)c3ccc(Cl)cc23)c1 | -0.9
CCN1C(C(=O)c2ccccc2)=C(NC(=O)c2ccc(Cl)cc2)c2ccccc2S1(=O)=O | 0.32
CN(C(=O)c1cccc(-c2nccnc2N2CCCC2)c1)C1COCC1O (configuration not stated) | -1.36
CCSc1ncc(Cl)c(C(=O)Nc2nc3ccc(OC)cc3s2)n1 | -0.3
O=C(Nc1ccc(Oc2nn[nH]n2)cc1)c1cccn1C1CC1 | -0.28
CN(C)C(=S)SSC(=S)N(C)C | -2.23
CCCCN(CCCC)CCNC(=O)c1cn(CC)c2ccc(S(=O)(=O)N3CCc4ccccc4C3)cc2c1=O | -1.56
Cc1ccc(Cl)cc1NC(=O)Cn1c(=O)oc2cc(S(=O)(=O)N3CCCC3)ccc21 | -2.23
COc1ccc(N2CCN(C(=O)Cn3cnc4sc(C)c(S(=O)(=O)N5CCCCC5)c4c3=O)CC2)cc1 | -0.75
CCCOC(=O)c1c(NC(=O)C2c3ccccc3Oc3ccccc32)sc2c1CCC(C)C2 (configuration not stated) | -2.26
CC(C)c1nc(CCN(C)C(=O)NCc2noc(C3CC3)n2)no1 | -3.03
COc1ccccc1N1CCN(C(=O)Cn2ncc3c(=O)oc4ccc(C)cc4c32)CC1 | -0.69
CCCCn1c(=NC(=O)c2c(-c3c(F)cccc3Cl)noc2C)c(C(=O)OCC)cc2c(=O)n3ccccc3nc21 | -0.04
CNC(=O)c1ccc(Nc2nnc(-c3ccc(C)c(S(=O)(=O)N(C)C)c3)c3ccccc23)cc1 | -0.69
CCN(C(=O)c1cc2cc3ccc(OC)cc3nc2o1)c1cccc(C)c1 | -0.91
COc1cc2c(cc1OC)C(c1cccc(Cl)c1)CC(=O)N2 (configuration not stated) | -0.52
CC(C)(C)[C@]1(O)CCN2C[C@H]3c4ccccc4CCc4cccc(c43)[C@@H]2C1 | -2.43
COC(=O)c1cc2oc3ccccc3c2n1Cc1ccc(Cl)cc1 | 0.85
CC(C)CCn1nnc2sc(-c3ccccc3)cc2c1=O | -0.08
CCOC(=O)C1=C(CNCc2ccccc2)NC(=O)NC1c1ccc(C)cc1 (configuration not stated) | -0.62
COc1ccc(C(=O)N2CCCCC2CCN2CCCCC2)cc1 (configuration not stated) | -1.29
CC1CCN(c2nc3ccc(C(=O)NCCc4ccc(S(N)(=O)=O)cc4)cc3s2)CC1 | -0.97
O=C(Cn1c(=O)n(-c2ccccc2Cl)c(=O)c2sc3ccccc3c21)NC1CCCC1 | -0.72
CN(C)S(=O)(=O)N1CC2CCC(C1)N(C(=O)c1cccnc1)C2 (configuration not stated) | -0.51
COc1ccc(NC(=O)CSc2nc(-c3ccc(OC)cc3)cc(=O)[nH]2)cc1 | 0.21
CCCCN(CC)CCNC(=O)c1cc2c(=O)oc3ccc(C)cc3c2s1 | -1.79
Cc1nnnn1-c1cccc(NC(=O)c2ccc(-c3cnco3)cc2)c1 | -0.47
CCn1c(CN2CCC(CN3CCCC3=O)CC2)nnc1C1CC(N)C1 (configuration not stated) | -0.63
Cn1c(=O)n(C)c2cc(NS(=O)(=O)c3ccc(C(C)(C)C)cc3)c(NCc3ccccc3)cc21 | 0
CN(C1CCCCC1)S(=O)(=O)c1ccc2c(c1)c(=O)c(C(=O)N1CCN(c3ccccc3)CC1)cn2C | -0.67
CC(Cn1cncn1)NC(=O)c1cc(N2CCCCC2)ccc1Cl (configuration not stated) | -1.08
Nc1n[nH]c(C(=O)N2CCC(O)(c3cccnc3)CC2)c1Cl | -0.26
CC(NC(=O)N1CCCN(C(=O)C(F)(F)F)CC1)c1ccsc1 (configuration not stated) | -0.36
Cc1c(NC(=O)c2cc(-c3cccc(O)c3)on2)c(=O)n(-c2ccccc2)n1C | 1.38
COc1cc(Cl)c(C)cc1NC(=O)c1cc2c(=O)oc3ccccc3c2s1 | 0.17
O=C(Cc1cc2c(cc1Cl)OCCO2)NCc1ccc2nsnc2c1 | -1.82
N#Cc1c(-n2ncnc2-c2cccc(Cl)c2)sc2c1CCCCC2 | 0.29
CSc1ccc2c(c1)C(N1CCN(C)CC1)Cc1ccccc1S2 (configuration not stated) | 0.96
O=C(c1csc2ccccc12)N1CCC(c2ncn[nH]2)CC1 | -2.09
CCOc1ccc(NC(=O)Cn2c(=O)n(-c3ccc(C)cc3)c(=O)c3cc(OC)c(OC)cc32)cc1 | -0.34
N#Cc1cc2n(n1)CCCN(C(=O)NCCCc1nc3ccc(F)cc3[nH]1)C2 | -0.43

(list continues)
SMILES | Bm FixLJ act
Cc1cccc(-c2nc3c4c(-c5ccccc5)c(-c5ccccc5)oc4ncn3n2)c1 | 0.18
Cc1noc(C)c1S(=O)(=O)Nc1ccc(C(=O)Nc2ccc(C(C)C)cc2)cc1 | -2.11
Cc1cccc(NC(=O)Cn2c(=O)n(Cc3ccccc3)c(=O)c3sc4ccccc4c32)c1 | -0.25
COc1ccc(C)cc1NC(=O)C1CCN(S(=O)(=O)c2c(C)noc2/C=C/c2ccco2)CC1 | -0.91
O=C(NC1(C(F)(F)F)NC(=O)N(CCc2ccccc2)C1=O)c1ccccc1Cl (configuration not stated) | -1.91
COc1cccc(CCNC(=O)c2cnc3sc(N4CCCC4)nn3c2=O)c1 | -1.74
Cc1cc2c(c3oc(=O)c4ccccc4c13)CN(Cc1ccc(F)cc1)CO2 | 5.29*
CCc1nn(CC(=O)NCc2ccco2)c(=O)c2cc3c(OC)cccc3n12 | -1
CC(NC(=O)c1c(O)nc2ccccn2c1=O)c1ccccc1 (configuration not stated) | -0.29
Cc1cc(N(C)CCn2ccnc2)nc(N2CCCCC2)n1 | -0.83
COCCCNC(=O)c1ccc2c(c1)NC(=O)C(C(C)C)N2 (configuration not stated) | -0.43
COc1ccc(-c2[nH]c(-c3ccc(O)cc3)nc2-c2ccccc2)cc1 | 0.05
CCOC(=O)c1c(-c2ccc(OC)c(OC)c2)csc1NC(=O)c1ccc(F)cc1 | -1.77
CC(C)Cc1cc(C(=O)NC2COCC2Cc2ccncc2)n(C)n1 (configuration not stated) | 0.28
CCOc1ccc2c(c1)NC(c1ccc(OCC)c(OCC)c1)=NC(c1ccc(F)cc1)=N2 | 0.13
CC(Sc1oc(-c2cccs2)nc1S(=O)(=O)c1ccccc1)c1ccccc1 (configuration not stated) | -1.27
COc1ccc(S(=O)(=O)NC2(C(F)(F)F)NC(=O)N(CCc3ccccc3)C2=O)cc1 (configuration not stated) | -0.82
CCc1ccc(S(=O)(=O)Nc2cc(-c3cn4ccccc4n3)ccc2C)cc1 | -1.37
O=C(COc1ccc([N+](=O)[O-])cc1)Nc1cccc2cccnc12 | -0.86
CCC(C)(CCNc1ccc(C(=O)N2CCOCC2)cn1)c1ccccc1OC (configuration not stated) | -0.16
Cc1ccccc1Cn1c2ccccc2c2cnn(CC(=O)NCc3ccccn3)c(=O)c21 | -1.5
COc1ccc(OC)c(C2C(C(N)=O)=C(C)Nc3nc(-c4cccc(Cl)c4)nn32)c1 (configuration not stated) | 0.81
Cc1ccc2oc(-c3cccc(NC(=O)Cc4ccc(Cl)cc4)c3)nc2c1 | -0.34
Cc1ccc(C)c(N2CCN(c3nc4ccccc4c(=O)n3-c3ccc(Cl)cc3)CC2)c1 | -1.71
Fc1cccc(Cl)c1Cn1c(-c2cccs2)nc2ccccc21 | -1.99
COCC1CCCN1C(=O)c1ccc2c(c1)nc(N1CCOCC1)n2C (configuration not stated) | -0.5
O=C(Nc1cccc(O)c1)c1cc2nc(-c3ccc(Br)cc3)cc(C(F)(F)F)n2n1 | -0.43
CCOc1cc(C(=O)Nc2ccc(NC(=O)c3cc4ccccc4o3)c(OC)c2)cc(OCC)c1OCC | -0.42
COc1ccccc1OCC(=O)N(CCc1ccccc1)Cc1cccnc1 | -2.1
O=C(NC1C2CCC1CN(C(=O)C1COc3ccccc3O1)C2)c1cscn1 (configuration not stated) | -2.04
COCCc1ccc(OCC(O)CNC(C)C)cc1 (configuration not stated) | -1.42&-0.5
COc1ccc(CCNc2oc(/C=C/c3cc(OC)c(OC)c(OC)c3)nc2C#N)cc1OC | -1.72
CC(=O)N1CCc2cc(S(=O)(=O)N3CCN(c4ccc(C)cc4)C(C)C3)ccc21 (configuration not stated) | 0.07
COCCNC(=O)c1ccc(NC(=O)NCCS(C)(=O)=O)cc1 | 0.63
CCc1ccc(S(=O)(=O)c2nnn3c2nc(NCc2cccc(OC)c2)c2cc(Cl)ccc23)cc1 | -0.62
Cc1ccc(-c2nc3nc(C)cc(N4CCN(c5cccc(C)c5C)CC4)n3n2)cc1 | 0.25
CCC(=O)N1CCc2cc(Br)cc(S(=O)(=O)N3CCCC(C(=O)NCc4cccc(OC)c4)C3)c21 (configuration not stated) | 1.36
CCCc1cc(C(=O)N2CC(=O)N(c3cccc(OC)c3)CC2C)n(C)n1 (configuration not stated) | -1.52
Cc1nc(N2CCN(C)CC2)ncc1C(=O)NCC1CCCN1 (configuration not stated) | -0.39
CCn1c(C(=O)N2CCC(C(=O)NCCCOC)CC2)cc2sccc21 | -0.95
Cc1ccc(NC(=O)Nc2sc3nc4n(c(=O)c3c2C)CCC(C)CC4)c(Cl)c1 (configuration not stated) | -0.47
Cc1ccc(C(=O)c2cn(Cc3ccc(F)cc3)c3nc(C)ccc3c2=O)cc1 | -3.49
CCOc1cccc(C(=O)Nc2c(C(=O)c3ccc(OC)cc3)oc3ccccc23)c1 | -0.61
COCCNc1nc2c(S(=O)(=O)c3ccccc3)nnn2c2ccc(Cl)cc12 | -0.12
CCCCn1cc2c(c1-c1ccc(Cl)cc1)c(=O)n(C)c(=O)n2C | -0.38
CCOc1cc(C#N)c(NC(=O)c2ccc(OC)c(S(=O)(=O)N3CCN(c4ccccc4)CC3)c2)cc1OCC | 0.29
Cc1c(CNC2CCC(C)CC2)c(C(=O)O)c(C)n1Cc1ccc(Cl)cc1 (configuration not stated) | -3.99
CCCCNC(=O)C(Cc1ccccc1)NS(=O)(=O)c1ccc2c(c1)c(=O)n(C)c(=O)n2C (configuration not stated) | 0.28
COC(=O)C1=C(c2ccccc2)c2ccccc2S(=O)(=O)N1CC(=O)Nc1ccccc1Cl | -0.21
CC(=O)N1CCc2cc(S(=O)(=O)CCC(=O)Nc3ccc(C)cc3Br)ccc21 | -1.73

(cont.)
SMILES | Bm FixLJ act
CCC(C)n1c(=N)c(C(=O)NC2CCCCC2)cc2c(=O)n3ccccc3nc21 (configuration not stated) | -0.59
Cc1cccc2c1-c1sc(C(=O)N(C)c3cccc(C(F)(F)F)c3)cc1CO2 | 1.05
COc1ccc(-c2cc(C(=O)OCC(=O)c3ccc(C)cc3)c3cccc(Cl)c3n2)cc1 | -1.62
Cc1ccc(Cn2c(=O)n(Cc3ccc(C(=O)NC4CCN(Cc5ccccc5)CC4)cc3)c(=O)c3ccccc32)cc1 | -0.97
CCCCCc1ccc(-c2ccc(C(=O)Oc3ccc(C(=O)OC)cc3)cc2)nc1 | -0.72
COc1ccc2[nH]cc(CCNC(=O)Nc3c(C)cccc3C)c2c1 | -1.13
COc1ccc(CCNC(=O)CCn2c(=O)c3ccccc3n(Cc3c(C)cc(C)cc3C)c2=O)cc1OC | -1.6
Cc1cccc2cc(CN(CCC(N)=O)CCc3ccccc3)c(=O)[nH]c12 | -1.82
COc1ccccc1NC(=O)c1oc2ccccc2c1NC(=O)c1c(F)cccc1F | -0.15
Cc1nc2ncccn2c1C(=O)N(C)Cc1cc(-c2cccs2)n[nH]1 | -1.2

Shown in CSV form: 13 of the compounds above.
Structure,Bm FixLJ act
Cc1c(CNC2CCC(C)CC2)c(C(=O)O)c(C)n1Cc1ccc(Cl)cc1 (configuration not stated),-3.99
CCCCNC(=O)C(Cc1ccccc1)NS(=O)(=O)c1ccc2c(c1)c(=O)n(C)c(=O)n2C (configuration not stated),0.28
COC(=O)C1=C(c2ccccc2)c2ccccc2S(=O)(=O)N1CC(=O)Nc1ccccc1Cl,-0.21
CC(=O)N1CCc2cc(S(=O)(=O)CCC(=O)Nc3ccc(C)cc3Br)ccc21,-1.73
CCC(C)n1c(=N)c(C(=O)NC2CCCCC2)cc2c(=O)n3ccccc3nc21 (configuration not stated),-0.59
Cc1cccc2c1-c1sc(C(=O)N(C)c3cccc(C(F)(F)F)c3)cc1CO2,1.05
COc1ccc(-c2cc(C(=O)OCC(=O)c3ccc(C)cc3)c3cccc(Cl)c3n2)cc1,-1.62
Cc1ccc(Cn2c(=O)n(Cc3ccc(C(=O)NC4CCN(Cc5ccccc5)CC4)cc3)c(=O)c3ccccc32)cc1,-0.97
CCCCCc1ccc(-c2ccc(C(=O)Oc3ccc(C(=O)OC)cc3)cc2)nc1,-0.72
COc1ccc2[nH]cc(CCNC(=O)Nc3c(C)cccc3C)c2c1,-1.13
COc1ccc(CCNC(=O)CCn2c(=O)c3ccccc3n(Cc3c(C)cc(C)cc3C)c2=O)cc1OC,-1.6
Cc1cccc2cc(CN(CCC(N)=O)CCc3ccccc3)c(=O)[nH]c12,-1.82
COc1ccccc1NC(=O)c1oc2ccccc2c1NC(=O)c1c(F)cccc1F,-0.15

(continued)
SMILES | Bm FixLJ act
Cc1ccc2c(CC(=O)Nc3nnc(C(C)C)s3)coc2c1C | 1.18
CCOC(=O)c1c(C)c(-c2ccccc2)n(CC(=O)Nc2cc(OC)cc(OC)c2)c1C | -1.82
CCOC(=O)C1CCN(C(=O)Cn2c(=O)oc3cc(S(=O)(=O)N4CCC(C)CC4)ccc32)CC1 | 1.24
CCCn1ncnc1-c1cccc(C(=O)NCCc2nc(N)cc(=O)[nH]2)c1 | -0.7
O=C(CCSc1nc(-c2ccco2)cc(C(F)(F)F)n1)Nc1cccc(O)c1 | -0.45
